# Screening results deposited in PubChem BioAssay by National Center for Advancing Translational Sciences (NCATS).
# Rango dissoc inh: prevents RanGTP from dissociating the Rango-importin beta complex; Potency, µM (series often up to 46.1 µM), for inactives: at the top dose activity change, negative = inhibition; 340,000 tested, 0.071% active; Biochemical FRET Rango-importin beta, RanGTP-induced dissociation; O95149+P62826; active means falling FRET ratio curve, often poorly fitted, with flat reads before Ran was added; inconclusive means other falling curves, or compound fluorescence or quenching; inactive means flat or rising ratio curve;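 note: potency is the fitted concentration of half-maximal effect; % of control where 0% means no effect; nearly all actives have a fitted effect of over 45% in size; -100% = wells without RanGTP and RCC1; the record marks most hits as doubtful in a second field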
#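 Rango (0.1 uM)–importin beta (0.25 uM) complex; RanGTP-RCC1 trigger; 45 min RT; CFP/YFP FRET read.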
# miR-21 FLuc: raises the signal of a miR-21 reporter; 340,000 tested, under 10 active; Potency, µM (titrated, usually from 38.3 µM), inactives show at the top dose reporter change, positive = more light; AID 2288; HeLa miR-21 FLuc reporter, luciferase, 48 h; active = well fitted rising curve with a large enough effect; inconclusive = small, poorly fitted or top-dose-only effect; inactive = no such curve, though single readings can be large or run the other way;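 note: % of control where 0% means no effect; miR-21 action dims this reporter so a rising signal means less miR-21 action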
#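 Luminescence from a firefly luciferase reporter carrying a miR-21 binding site downstream, stably expressed under a CMV promoter in HeLa cells that make miR-21 endogenously, reports miRNA modulation after 48 h compound exposure up to approximately 40uM final.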
# GLA inh pH 4.5: alpha-galactosidase A (human) inhibition, pH 4.5; P06280; purified enzyme, 4-MU-alpha-Gal fluorescence, pH 4.5; activity change, negative = inhibition, % at 105 µM; 230,000 tested, under 10 active; AID 1467; inconclusive = small, poorly fitted or top-dose-only inhibition, or a rising curve; inactive = flat fitted curve, though single readings scatter; no compound was filed as active;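 note: 0% = full activity with enzyme and -100% = basal without enzyme; dose as in the result columns while the protocol names 77 µM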
# Target sequence (P06280 whole entry, looked up): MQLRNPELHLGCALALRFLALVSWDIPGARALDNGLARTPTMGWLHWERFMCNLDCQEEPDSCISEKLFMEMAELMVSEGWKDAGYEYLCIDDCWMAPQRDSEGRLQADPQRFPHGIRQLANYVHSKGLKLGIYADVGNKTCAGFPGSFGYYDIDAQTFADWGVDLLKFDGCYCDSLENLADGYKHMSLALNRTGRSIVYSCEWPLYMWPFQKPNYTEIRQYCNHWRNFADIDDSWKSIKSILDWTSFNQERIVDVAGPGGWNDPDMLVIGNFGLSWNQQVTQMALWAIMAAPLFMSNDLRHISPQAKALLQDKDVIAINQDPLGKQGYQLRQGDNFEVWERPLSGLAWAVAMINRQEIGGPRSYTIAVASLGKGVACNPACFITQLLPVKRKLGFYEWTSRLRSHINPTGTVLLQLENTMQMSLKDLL
# Rango-impB inh: inhibitors of Rango-importin beta complex formation; Q14974; Rango CFP/YFP FRET sensor + importin beta, 45 min; Potency, µM (doses to about 92.2 µM), inactives show top-dose inhibition of complex formation; 340,000 tested, 0.031% active; active = rising FRET ratio curve, often small or poorly fitted; inconclusive = mostly compound fluorescence or quenching in the first reads; inactive = flat curves in all reads;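 note: potency is the fitted concentration of half-maximal effect; 0% = DMSO wells and 100% = buffer wells lacking importin beta; nearly all actives have a fitted effect of over 15% in size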
#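 FRET biosensor Rango (snurportin 1 IBB between N-terminal EYFP and C-terminal Cerulean), 50 nM in PBS/1 mM DTT/0.02% Tween-20/0.1% BSA, preincubated 5 min RT with compound; 0.125 microM importin beta added, 45 min RT, CFP/YFP FRET ratio read.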
# The depositor's hits bear a star; ? = inconclusive; . = no result given. Some of the compounds tested, so the mix of outcomes need not match the whole.
# Screens in order: Rango dissoc inh, miR-21 FLuc, GLA inh pH 4.5, Rango-impB inh
- CCC1CCc2sc(C(=O)NCc3ccccn3)cc2C1 (stereo not given)
  -7%, -51%, ., 2.5%
- O=C(O)c1ccccc1OCC1CCCO1 (stereo not given)
  21%, -1%, ., -0.4%
- O=C(c1cccc(S(=O)(=O)Nc2ccccc2F)c1)N1CCN(c2ccccc2F)CC1
  -18%, 1%, 1, -0.3%
- CC(C)(C#N)Cc1cc(CC(C)(C)C#N)cc(C(C)(C)C)c1
  0%, -1%, ., 0.5%
- COc1ccccc1CNC(=O)CCCNC(=O)c1ccc(Cl)cc1
  1%, -1%, ., -0.3%
- O=C(C1=C[C@@H]2[C@H]3C(=O)N(c4cccc(Cl)c4)C(=O)[C@H]3[C@@H](C(=O)c3ccc(Cl)cc3)N2C=C1)c1ccccc1
  ?, -3%, -7, ?
- Cc1ccnc(NC(=O)c2ccc(Cl)c(NC(=O)C(C)Oc3ccccc3)c2)c1 (stereo not given)
  0%, -9%, -30, -1.6%
- COc1ccc(C(=O)NCN2CCN(c3ccccc3)CC2)cc1OC
  2%, ., ., -5.1%
- Cn1cccc1CC(=O)NNC(=O)Nc1cccc(Cl)c1
  12%, -1%, 0, -0.4%
- CCCOc1ccccc1C1C(C(=O)OC)=CN(C(C)C)C=C1C(=O)OC
  ?, 0%, ?, ?
- CC(=O)Nc1ccc2c(c1)[nH]c(=O)c1ccccc12
  -1%, ., ., -5.5%
- CCN(C(=O)COC(=O)c1cc(S(=O)(=O)N(C)C)ccc1Cl)C1CCS(=O)(=O)C1 (stereo not given)
  8%, ., ., 2.7%
- COc1ccc(CCNC(=O)COC(=O)c2cnc(C)cn2)cc1
  15%, 9%, 7, -0.4%
- COc1ccccc1N1CCN(C(CNC(=O)c2ccco2)c2cccnc2)CC1 (stereo not given)
  -5%, 5%, 9, ?
- CCC(=O)NC(=S)Nc1ccc(NC(=O)COc2ccc([N+](=O)[O-])cc2)cc1
  -10%, 15%, -13, -0.2%
- COc1ccccc1CCC(=O)Nc1ccc(C)cc1Cl
  8%, -64%, -2, -3.8%
- S=C(NCCc1ccccc1)NCc1ccccc1Cl
  -1%, -18%, -8, 3.2%
- CC(=O)N1c2ccc(S(=O)(=O)N3CCCCC3)cc2CC1C(=O)Nc1ccccc1C(F)(F)F (stereo not given)
  8%, -3%, ., 1.8%
- COc1cccc(C(=O)N(C)CC2CCN(CCc3cccc(C(F)(F)F)c3)CC2)c1
  8%, 13%, ., -0.3%
- C[C@H](NS(=O)(=O)c1ccc(Cl)cc1)C(=O)OCC(=O)Nc1cc(S(=O)(=O)N2CCOCC2)ccc1Cl
  3%, ., ., -4.1%
- Cc1cc(NC(=O)CCC(=O)N(c2cccnc2)C(C(=O)NC2CCCC2)c2ccccc2)no1 (stereo not given)
  16%, 1%, 1, 5.3%
- O=C(OCc1c(-c2ccccc2)ncc2ccccc12)c1cccs1
  14%, ., ., 3.0%
- Cc1cccc(NC(=O)C2CCC(CNC(=O)[C@@H]3Cc4ccccc4CN3)CC2)c1 (stereo not given in full)
  1%, -1%, ., 0.7%
- Cc1c(N(C)C)c(=O)n(-c2ccccc2)n1C
  -8%, ., 1, -1.5%
- Cc1nc(C)n(C(=O)N(c2ccccc2)c2ccccc2)n1
  -8%, -6%, 0, 3.5%
- CCOC(=O)[C@H]1[C@H]2COc3ccc(Br)cc3[C@@H]2N2C(=O)CN(Cc3ccco3)C(=O)[C@@]12C
  -7%, ., ., -1.5%
- Cc1ccc(C(=O)C(OC(=O)CN2C(=O)c3ccccc3C2=O)c2ccccc2)cc1 (stereo not given)
  1%, -6%, 9, 2.5%
- O=C(NCc1ccc2c(c1)OCO2)c1ccc(S(=O)(=O)N2CCCCC2)cc1
  -15%, 7%, 5, 2.7%
- O=C(CSc1nc(NS(=O)(=O)c2ccccc2)cc(=O)[nH]1)Nc1cccc(C(F)(F)F)c1
  12%, -4%, ., -2.1%
- Cc1ccc(C)c(-n2c(SCC(=O)O)nc3sc4c(c3c2=O)CCCC4)c1
  -3%, -1%, ., -0.7%
- O=CNCCCc1nc2ccccc2n1Cc1ccccc1
  -6%, -2%, 6, 1.0%
- O=C(CSc1nc(-c2ccccc2)c(-c2ccccc2)[nH]1)N1CCN(S(=O)(=O)c2ccccc2)CC1
  0%, 2%, -13, -0.1%
- CC(C)c1nnc(NC(=O)CCC(=O)N2CCN(Cc3ccccc3)CC2)s1
  3%, -1%, -4, 1.1%
- CCc1ccc2[nH]c(=O)c(C(c3nnnn3CC3CCCO3)N3CCN4CCCC4C3)cc2c1 (stereo not given)
  4%, -4%, -1, 1.0%
- O=C(CS(=O)c1ccccc1[N+](=O)[O-])Oc1ccc(Br)cc1 (stereo not given)
  -5%, -2%, 6, 0.6%
- CCOC(=O)C1(CCOc2ccccc2)CCN(S(=O)(=O)N(C)C)CC1
  10%, -2%, ., -2.8%
- CCN1CCN(C(=O)C2CCN(S(=O)(=O)c3ccc(SC)cc3)CC2)CC1
  2%, 0%, ., -2.3%
- CC(C)Cn1c(SCC(=O)Nc2cccc(S(N)(=O)=O)c2)nc2ccccc2c1=O
  -4%, 8%, -2, 0.3%
- Cc1cc(C)n(-c2nc3c(c(=O)[nH]c(=O)n3C)n2CC(O)COc2ccccc2)n1 (stereo not given)
  10%, -10%, -7, -1.4%
- Cc1c(C(=O)N2CCC2)oc2ccc(Cl)cc12
  -9%, ., ., -0.6%
- CC(=O)N1CCN(c2ccc(NC(=O)c3ccc(Cl)c([N+](=O)[O-])c3)cc2)CC1
  -7%, 6%, ., 0.0%
- Cc1nn2c(=S)[nH]nc2[nH]c1=O
  -8%, 0%, -13, 0.5%
- COc1ccc(N2C(=O)C3CCCN3C2c2cc(OC)c(OC)cc2OC)cc1 (stereo not given)
  9%, 10%, 3, 3.6%
- O=C(Oc1ccccc1)c1cc2ccccc2oc1=O
  7%, -3%, -1, 5.2%
- CCC(C)Nc1nc(N)c([N+](=O)[O-])c(N2CCCCCC2)n1 (stereo not given)
  5%, 10%, ., -2.4%
- COc1cccc(CN(C)C(=O)c2ccc3c(=O)n4c(nc3c2)CCC4)c1
  2%, ., ., 4.0%
- N#Cc1cnc(Nc2nc3ccccc3o2)nc1-c1ccccc1
  -28%, -1%, -7, 4.5%
- Cc1[nH]c2ccccc2c1SCC(=O)N1CCCc2ccccc21
  -7%, 6%, -2, 1.2%
- COc1ccc(CNC(=O)Nc2cccc(Cl)c2)cc1
  12%, -65%, ., 1.2%
- CCC(=O)Nc1c(-c2ccc(OC)cc2)c(=O)c2ccccc2n1C
  8%, -1%, -1, -3.0%
- Cc1ccc(N(C(=O)CNC(=O)c2ccco2)C(C(=O)NC2CCCCC2)c2cccnc2)cc1F (stereo not given)
  15%, -3%, ., 2.0%
- CCOC(=O)N1CCN(C(=O)C2CCCN(S(=O)(=O)c3cccnc3)C2)CC1 (stereo not given)
  2%, -2%, 3, 5.8%
- CCOC(=O)C1=C(C)Nc2nnnn2C1c1cccc(OC)c1OC (stereo not given)
  0%, -1%, -1, 1.8%
- Nc1ccc2oc(=O)c(-c3ccccc3)cc2c1
  -18%, -54%, ., 6.7%
- Cc1ccc(Cn2nc(C)c(NC(=O)c3nn(C)cc3Cl)c2C)cc1
  -6%, -2%, -2, 4.1%
- CC(C)(C)c1ccc(C(=O)NNC(=O)c2cccc(Br)c2)cc1
  10%, -34%, -1, 4.4%
- CCCC1(c2ccccc2)NC(=O)N(CC(=O)Nc2cc(OC)cc(OC)c2)C1=O (stereo not given)
  -2%, 9%, ., ?
- O=C(NCCc1c[nH]c2ccccc12)C(=O)NCC1OCCCN1S(=O)(=O)c1ccccc1 (stereo not given)
  -10%, 12%, 4, 2.2%
- Cc1ccccc1NC(=O)COC(=O)CC1CCCC1
  22%, ., ., 1.5%
- COC(=O)C(C(=O)Nc1ncccn1)C1CCCCCC1 (stereo not given)
  -6%, -6%, -9, 5.9%

# (continued)
# Screens in order: Rango dissoc inh, miR-21 FLuc, GLA inh pH 4.5, Rango-impB inh
- CCc1ccc(/C=N/N2CCN(c3ccccn3)CC2)cc1
  0%, -34%, -16, 0.4%
- COc1ccc(-c2n[nH]c(C)c2-c2cnn(-c3ccccc3)c2)c(O)c1C
  2%, -4%, -8, 0.4%
- CCCN1CCN(CCCNC(=O)c2ccc3c(c2)NC(=O)c2ccccc2S3)CC1
  4%, 0%, ., 2.0%
- Cc1cc(C)n(CC(=O)NNC(=O)COc2ccc(F)cc2Br)n1
  8%, ., ., ?
- CC(=O)Nc1ccc(/C=C(\C#N)C(=O)NCc2ccccc2)cc1
  0%, -2%, -10, -4.1%
- COc1ccc(C(N)=O)c(OCC(=O)Nc2cc(C)on2)c1
  3%, ., ., -2.7%
- O=C(CN1CCN(S(=O)(=O)c2ccc3c(c2)OCCO3)CC1)Nc1ccccc1Br
  -7%, ., ., 3.2%
- COc1ccc(/C=N/NC(=O)c2cccc([N+](=O)[O-])c2)cc1OC(=O)c1ccccc1
  -8%, 11%, -3, -1.3%
- CCOC(=O)Cc1nc2ccccc2n(CC#N)c1=O
  16%, 1%, 0, -2.5%
- O=C(NC1CCOc2ccccc21)C1CCCC1 (stereo not given)
  7%, 1%, ., -0.1%
- O=C(O)CC12CC3CC(C1)CC(n1ncc(N4CCC5(CC4)OCCO5)c(Cl)c1=O)(C3)C2
  -17%, -12%, -7, -1.6%
- CC1CCN(S(=O)(=O)c2c[nH]c(=O)[nH]c2=O)CC1
  10%, ., ., -0.9%
- O=c1c(Cl)c(Cl)cnn1Cc1ccc(F)cc1
  16%, ?, 0, 3.9%
- C/C(=N\NC(=O)C1CC1)c1ccc(Cl)c(Cl)c1
  21%, -22%, 2, -0.6%
- O=C(O)c1ccc(-n2ccnc2)c([N+](=O)[O-])c1
  0%, 4%, -5, 2.3%
- Cc1ccc(C2(C)NC(=O)N(CC(=O)Nc3ccc(S(=O)(=O)Nc4nccs4)cc3)C2=O)cc1 (stereo not given)
  10%, ., ., 1.4%
- COc1ccc([N+](=O)[O-])cc1N(CC(=O)NCCCOC(C)C)S(C)(=O)=O
  -3%, 1%, 0, 1.2%
- C/C(Cn1nc([N+](=O)[O-])cc1C)=N\NC(=O)COc1c(Cl)cc(Cl)cc1Cl
  -3%, 3%, -1, -2.6%
- Cc1ccccc1CS(=O)(=O)CCC(=O)O
  -7%, 2%, -1, 0.3%
- O=C(NCCCc1ccccc1)c1ccccc1O
  -16%, -12%, -4, 5.6%

# At a glance, some entries already given.
# Screens in order: Rango dissoc inh, miR-21 FLuc, GLA inh pH 4.5, Rango-impB inh
- CCc1ccc(/C=N/N2CCN(c3ccccn3)CC2)cc1
  0%, -34%, -16, 0.4%
- COc1ccc(-c2n[nH]c(C)c2-c2cnn(-c3ccccc3)c2)c(O)c1C
  2%, -4%, -8, 0.4%

# Other results follow.
# Screens in order: Rango dissoc inh, miR-21 FLuc, GLA inh pH 4.5, Rango-impB inh
- O=C(CSC1=NS(=O)(=O)c2cc(Cl)ccc2N1)NCc1ccccc1
  1%, ., ., -1.6%
- NC(=O)COc1ccc(Cc2ncc(C(F)(F)F)cc2Cl)cc1
  0%, 5%, 11, 1.9%
- Cc1cc2c(cc1S(=O)(=O)N1CCOCC1)NC(=O)CO2
  -7%, -2%, ., -4.2%
- O=C(COC(=O)c1ccc[nH]c1=O)NC1CC1
  -3%, ., ., 6.0%
- O=C(N/N=C/c1ccccn1)c1ccc([N+](=O)[O-])cc1
  0%, 0%, -10, 0.7%
- Cc1cccc(CN2CCN(c3ccccn3)CC2)c1
  1%, ., ., -1.8%
- COCCOc1ccc(C(F)(F)F)cc1NC(=O)c1ccc(C)cc1
  -3%, -4%, 4, 1.1%
- Cc1nc(NS(=O)(=O)c2ccccc2)sc1C(C)(C)C
  -11%, -9%, 5, -0.9%
- O=C(NCCCN1CCCC1=O)c1cncc(Br)c1
  8%, 1%, -3, -1.3%
- CC(Oc1ccc(Cl)cc1Cl)C(=O)NCCC1=CCCCC1 (stereo not given)
  -2%, -14%, -8, 1.9%
- CC(=O)Oc1c(C)cc(Cl)cc1C(=O)Nc1ccc([N+](=O)[O-])cc1Cl
  8%, 10%, 3, -4.4%
